Marburg entry inh: inhibitors of Marburg virus binding or cell entry; Marburg virus pseudotyped entry inhibition, cell reporter; control for the full effect not named in the record; about a third of the inactives were read at about 46 µM; Potency, µM (titrated, usually from 37.8 µM), without a hit: top-dose activity change, negative = inhibition, most hits filed as inhibitors; actives 1.8% (n = 300,000); active = well fitted inhibition curve with a large enough effect; inconclusive = small, poorly fitted or top-dose-only effect, or effect the other way; inactive = flat fitted curve, though single readings scatter; tested in HEK293 cells; about a fifth of its hits are not listed in these tables; also: % is scaled to controls: 0 for no effect and ±100 for the full control effect; luciferase read-out
2A StopGo: FMDV 2A StopGo reporter, luciferase signal. human cells with a luciferase reporter of 2A StopGo recoding; control for the full effect not named in the record. Potency, µM (doses to about 57.9 µM), inactives show at the top dose signal change, negative = less light. actives 1.2% (n = 410,000). AID 1159524; active = well fitted falling curve with a large enough effect; inconclusive = small, poorly fitted or top-dose-only effect; inactive = no such curve, though single readings can be large or run the other way; tested in HEK293T cells; also: % is scaled to controls: 0 for no effect and ±100 for the full control effect; nearly all actives have a fitted effect of over 45% in size; luciferase light after 4 h
Lassa entry inh: blocks Lassa virus binding to or entry into cells | Lassa virus pseudotype entry inhibition, cell reporter; control for the full effect not named in the record | Potency, µM (titrated, usually from 37.9 µM), inactives show at the highest dose activity change, negative = inhibition, hits mostly inhibitors | actives 1.2% (n = 300,000) | AID 540256; active means well fitted inhibition curve with a large enough effect; inconclusive means small, poorly fitted or top-dose-only effect, or effect the other way; inactive means flat fitted curve, though single readings scatter; tested in HEK293 cells; also: % is scaled to controls: 0 for no effect and ±100 for the full control effect; nearly all actives have a fitted effect of over 50% in size; luciferase read-out
Cruzain inh noDet: blocks cruzain activity in detergent-free assay | Potency, µM, for the others: max response, negative = inhibition, hits mostly inhibitors | purified cruzain, Z-FR-AMC fluorescence, no detergent | actives 2.3% (n = 200,000) | AID 1476 | P25779;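 also: plate controls were enzyme without inhibitor for no effect and buffer without enzyme for full effect; nearly all actives have a fitted effect of over 40% in size; top concentration of the series not given in the record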
Target sequence (P25779 123-467 limits assumed): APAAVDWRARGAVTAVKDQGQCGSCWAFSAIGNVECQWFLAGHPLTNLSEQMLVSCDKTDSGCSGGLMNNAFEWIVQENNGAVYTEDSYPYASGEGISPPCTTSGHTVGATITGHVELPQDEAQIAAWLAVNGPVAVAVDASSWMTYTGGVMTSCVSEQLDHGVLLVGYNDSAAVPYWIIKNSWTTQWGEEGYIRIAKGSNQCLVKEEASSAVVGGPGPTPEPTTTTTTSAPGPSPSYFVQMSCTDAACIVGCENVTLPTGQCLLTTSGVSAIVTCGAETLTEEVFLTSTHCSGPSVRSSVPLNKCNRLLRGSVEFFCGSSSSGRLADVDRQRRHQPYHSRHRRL
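Purified cruzain at 1.5 nM, pre-incubated 15 min with compound at room temperature in 100 mM sodium acetate pH 5.5, 5 mM DTT, 0.00005% Triton X-100. Reaction started with 2 uM Z-FR-AMC; AMC fluorescence increase over 60 s gives rate.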
SARS PLP yeast: inhibitors of SARS-CoV papain-like protease in yeast | S. cerevisiae expressing SARS-CoV PLpro, growth rescue; control for the full effect not named in the record | Potency, µM (titrated, usually from 32.9 µM), for inactives: at the highest dose activity, positive = growth rescue | actives 0.19% (n = 330,000); active means well fitted rising curve with a large enough effect; inconclusive means small, poorly fitted or top-dose-only effect; inactive means no such curve, though single readings can be large or run the other way; also: 0% is about no effect; nearly all actives have a fitted effect of over 55% in size; growth read by luminescence after 48 h
Cruzain inh Det: blocks cruzain activity in presence of Triton detergent; P25779; purified cruzain, Z-FR-AMC fluorescence, 0.01% Triton; Potency, µM, for inactives: max response, negative = inhibition, hits mostly inhibitors; actives 0.43% (n = 200,000);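 also: plate controls were neutral wells for no effect and buffer without enzyme for full effect; nearly all actives have a fitted effect of over 40% in size; top concentration of the series not given in the record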
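Steps: dispense cruzain (1.5 nM final) in acetate buffer pH 5.5 with DTT and 0.01% Triton X-100; pin-transfer compounds; incubate 15 min RT; add Z-FR-AMC (2 uM final); read fluorescence every 30 s, using the 60 s intensity change.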
RE007 growth inh: less growth of the S. pombe RE007 Vpr strain; S. pombe RE007 Vpr strain, BacTiter-Glo ATP luminescence, 24 h; control for the full effect not named in the record; actives 0.21% (n = 360,000); AID 651644; Potency, µM (series often up to 92.2 µM), inactives show at the top dose activity change, negative = less growth; active = well fitted falling curve with a large enough effect; inconclusive = small, poorly fitted or top-dose-only effect; inactive = no such curve, though single readings can be large or run the other way;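 also: % is scaled to controls: 0 for no effect and ±100 for the full control effect; nearly all actives have a fitted effect of over 50% in size; the assay follows cell death caused by Vpr and the record does not say whether a fall means rescue or toxicity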
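Fission yeast RE007 carrying one integrated HIV-1 vpr copy, seeded at OD 0.01 in PMG+AL medium with 23 nL pinned compound. Grown 24 h at 30 degrees; viability read by BacTiter-Glo luminescence after 5 min.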
NS1 function inh: blocks influenza NS1 protein function; S. cerevisiae slowed by influenza A NS1, growth recovery by OD600; AID 2326; actives 0.4% (n = 270,000); Potency, µM (doses to about 46.1 µM), for inactives: at the top dose activity, positive = more growth; active means well fitted rising curve with a large enough effect; inconclusive means small, poorly fitted or top-dose-only effect; inactive means no such curve, though single readings can be large or run the other way; also: nearly all actives have a fitted effect of over 50% in size
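S. cerevisiae expressing influenza A NS1, grown in glucose, washed, then diluted 1:100 into pH 6.0 -URA galactose medium with 23 nl compound. Growth recovery read as OD600; NS1-free strain serves as control.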
An asterisk follows results filed as active; ? = inconclusive; . = no result given; & = joins results of further samples; [ ] = dose if it differs, or a comment. Unless noted, calls follow the shape of the dose curve; as a rule, active = well fitted curve in the direction sought with a large enough effect; inconclusive = small, poorly fitted or top-dose-only effect, or another doubt; inactive = no such curve, though single readings can be large; an effect the other way counts as inactive or inconclusive. Potency is read from the fitted curve at half-maximal effect.

SMILES | Marburg entry inh | 2A StopGo | Lassa entry inh | Cruzain inh noDet | SARS PLP yeast | Cruzain inh Det | RE007 growth inh | NS1 function inh
Cc1nn2c(-c3ccncc3)nnc2c2ccccc12 | 13% | -8% | 0% | -10% | -23% | -5.5% | -5% | -103%
CCOc1ccc(S(=O)(=O)N(C)c2ccc(OCC(=O)Nc3ccc4[nH]c(=O)[nH]c4c3)cc2)cc1 | 10%&10% | -24% | -15% | -2% | 1% | -7.6% | -1% | -1%
CC(NC(=O)COC(=O)Cn1cnc2ccccc2c1=O)C1CC2CCC1C2 (configuration not stated) | 6% | -6% | 10% | 8% | 21% | -2.4% | 9% | -24%
Cn1nc(C(=O)N2CCN(C(c3ccccc3)c3ccccc3)CC2)c2ccccc2c1=O | . | ? | . | . | -1% | . | 4% | -8%
O=C(Cn1cnc2ccccc2c1=O)Nc1ccc(-c2nnc3n2CCCCC3)cc1 | 3% | 42%[activator] | 4% | -3% | -6% | 4.9% | 11% | -4%
CCc1cccc(NC(=O)CSC2=NS(=O)(=O)c3ccccc32)c1 | 8% | 0% | . | -9% | -8% | -2.1% | 2% | -48%
COc1ccc(OC)c(-c2nc3cc4ccccc4cc3nc2-c2ccccc2)c1 | 29% | -13% | -18% | -30% | -4% | -6.0% | -19% | 11%
CCCCCP(=O)(O)c1ccccc1 | 8% | 0% | 12% | -15% | -1% | 8.9% | -15% | -4%
Cc1ccc(-n2c(SCC(=O)N/N=C/C=C/c3ccccc3[N+](=O)[O-])nc3ccccc3c2=O)cc1 | ? | 6% | ? | 25µM* | 13% | -5.7% | -16% | 24%
CCN(CCNC(=O)Nc1ccc(Cl)cc1)c1ccccc1 | ? | ? | 16µM* | 10% | . | -1.7% | 10% | -28%
O=C(OCn1nnc2ccccc2c1=O)c1cc(-c2ccccc2)nc2ccccc12 | 3% | -15% | 8% | ? | -24% | -3.5% | ? | 9%
CCN1CCN(CCCN(Cc2ccco2)C(=S)Nc2cccc(Cl)c2C)CC1 | -15%[46.1 µM] | 2% | ? | . | 1% | . | 7% | -7%
CCN(Cc1ccccc1)C(=O)/C=C/c1ccccc1[N+](=O)[O-] | -18% | 0% | 7% | . | -1% | . | -4% | -2%
Cc1ccc(OCC(=O)Nc2ccc3c(c2)ncn3C)cc1 | -1%[46.1 µM] | -1% | 0% | . | . | . | 39% | .
Cc1ccc(NC(=O)N2CCN(c3ccccn3)CC2)cc1 | 16% | 10% | -3% | 3% | ? | -0.7% | 3% | -9%
CC(=O)OCCn1c2nc(=O)[nH]c(=O)c-2nc2cc(C)c(C)cc21 | . | -9% | . | . | 2% | . | -3% | -6%
Cc1c(C)c2c(OCC(=O)NCc3ccccn3)cc3c(c2oc1=O)CCC(C)(C)O3 | . | -16% | . | . | -9% | . | -3% | 7%
COc1ccccc1CCC(=O)Nc1ccc2c(c1)CN(CCCn1cccn1)CC2 | . | ? | . | . | -6% | . | -11% | 2%
CSc1nn(-c2ccc(C(=O)OC(C(=O)NC(N)=O)C(C)C)cc2)c(=S)s1 (configuration not stated) | -16%[46.1 µM] | -9% | -30%[46.1 µM] | . | 1% | . | -9% | -1%
Cc1ccc(CSCC(=O)Nc2ccccc2)cc1 | ? | 24% | 28%[46.1 µM] | . | -3% | . | 7% | -6%
NNC(=O)c1cccc(COc2ccccc2Br)c1 | ? | -21% | ? | 3% | -8% | 2.8% | -5% | 21%
Cc1ccc(NC(=O)Cc2ccc([N+](=O)[O-])cc2)c(Br)c1 | 28% | -9% | -20% | ? | 6% | -0.4% | -5% | 21%
CNC(=O)OCCc1nccn1C | 16% | -5% | 5% | 6% | -2% | -2.0% | -1% | 7%
CCOC(=O)c1[nH]c(C)c(CCC(=O)N2CCN(c3cccc(C)c3C)CC2)c1C | . | ? | ? | 3% | . | 0.2% | . | .
COc1ccc(N2C(=O)CCC(C(=O)NCc3ccccn3)C2c2ccc(OC)c(OC)c2)cc1 (configuration not stated) | -10%&-10%[46.1 µM] | 7% | -7% | 0% | 3% | -0.4% | -12% | -2%
COC(=O)CCCn1nc(NC(=O)COc2ccc(F)cc2)cc1C | 4%[46.1 µM] | -9% | . | . | -3% | . | 3% | -21%
COc1cc(/C=N/N2C(C)CCCC2C)cc(Br)c1O (configuration not stated) | 5%[46.1 µM] | -1% | ? | . | 4% | . | -12% | .
Cn1nc(C(F)(F)F)c(-c2ccc(Br)cc2)c1NC(=O)c1ccco1 | . | -25% | . | . | -10% | . | -3% | -3%
COc1ccc(C(=O)/C=C/Nc2ccccn2)cc1 | ? | 8.9µM* | ? | -4% | -19% | -6.8% | ? | -143%
CCOC(=O)c1c(C)oc2nc(C)nc(Nc3cc(C)ccc3OC)c12 | . | -5% | ? | -3% | . | -0.2% | . | .
COc1cc(NC(=O)CCS(=O)(=O)c2ccc3c(c2)oc(=O)n3C)cc(OC)c1 | . | -4% | . | . | -6% | . | 8% | -2%
COc1ccc(C2CC(c3ccc(F)cc3)n3nc(NS(C)(=O)=O)nc3N2)cc1 (configuration not stated) | -2%[46.1 µM] | -5% | -8% | . | -1% | . | 6% | -1%
CCOC(=O)C1=NN(C(=O)c2ccc(C)cc2)C(O)(c2ccc(Cl)cc2)C1 (configuration not stated) | -6% | -26% | 1% | -22% | -16% | -7.6% | -26% | -101%
CC(C)(C)c1nn(-c2ccccc2)c2[nH]c(=O)c(CNc3ccc4c(c3)OCCO4)cc12 | -3% | . | 20% | -6% | -27% | -3.6% | 5% | -114%
CCOC(=O)N1CCN(S(=O)(=O)N2CCCC(C(=O)NCCc3ccc(OCC)c(OCC)c3)C2)CC1 (configuration not stated) | . | -11% | . | . | 8% | . | -15% | -10%
COc1ccc(N(CC(=O)NCc2ccccc2)S(=O)(=O)c2c(C)nn(C)c2C)cc1 | . | -6% | . | 24% | 0% | 1.9% | 7% | -4%
Cc1ccc(-c2noc(-c3ccccc3C(=O)NCC3CCCO3)n2)cc1 (configuration not stated) | ? | -3% | 9% | 15% | -5% | 5.0% | -1% | -3%
COc1cc(/C=N/NC(=O)CCC(=O)NC2CCCCC2)ccc1C | 7%[46.1 µM] | -8% | 17%[46.1 µM] | . | -1% | . | 18% | .
COc1cccc(/C=N/NC(=O)CNC(=O)C(c2ccccc2)c2ccccc2)c1O | ? | 39%[activator] | 10µM* | . | 1% | . | -3% | -7%
CC(C)(C)OC(=O)N[C@@H](Cc1ccccc1)c1nnc(S(=O)(=O)Cc2ccccc2)o1 | . | . | . | 32µM* | -42% | 16µM* | . | -132%
CCOc1ccsc1C(=O)OC | 2% | -5% | 1% | . | 1% | . | -1% | 4%
CCOc1ccc(NC(=O)c2cnn(-c3ccc(C)c(Cl)c3)c2C2CCNCC2)cc1 | . | -4% | 3%[46.1 µM] | -5% | . | -1.2% | . | .
O=C(CSCc1ccccc1)Nc1ccccc1C(=O)Nc1ccc(C(=O)O)cc1 | -5%[46.1 µM] | 15% | 1% | . | 0% | . | -23% | -1%
Cc1ccc(NC(=O)C2CCCN(c3nnc(C)c4c(C)n(-c5ccccc5)nc34)C2)c(Cl)c1 (configuration not stated) | . | -10% | ? | -3% | . | -3.0% | . | .
CN1CCN(S(=O)(=O)c2cccc(C(=O)NCc3ccc(Cl)cc3)c2)CC1 | 19%[46.1 µM] | -1% | 10%[46.1 µM] | . | -1% | . | -8% | .

5 entries from above in a different format.
Order of results – Marburg entry inh, 2A StopGo, Lassa entry inh, Cruzain inh noDet, SARS PLP yeast, Cruzain inh Det, RE007 growth inh, NS1 function inh
> CC(C)(C)OC(=O)N[C@@H](Cc1ccccc1)c1nnc(S(=O)(=O)Cc2ccccc2)o1
 : ., ., ., 32µM*, -42%, 16µM*, ., -132%
> CCOc1ccsc1C(=O)OC
 : 2%, -5%, 1%, ., 1%, ., -1%, 4%
> CCOc1ccc(NC(=O)c2cnn(-c3ccc(C)c(Cl)c3)c2C2CCNCC2)cc1
 : ., -4%, 3%[46.1 µM], -5%, ., -1.2%, ., .
> O=C(CSCc1ccccc1)Nc1ccccc1C(=O)Nc1ccc(C(=O)O)cc1
 : -5%[46.1 µM], 15%, 1%, ., 0%, ., -23%, -1%
> Cc1ccc(NC(=O)C2CCCN(c3nnc(C)c4c(C)n(-c5ccccc5)nc34)C2)c(Cl)c1 (configuration not stated)
 : ., -10%, ?, -3%, ., -3.0%, ., .

Carrying on:
SMILES | Marburg entry inh | 2A StopGo | Lassa entry inh | Cruzain inh noDet | SARS PLP yeast | Cruzain inh Det | RE007 growth inh | NS1 function inh
CCCCc1c(O)nc(SCC(=O)Nc2ccc(C)cc2)n(-c2ccc(OC)cc2)c1=O | 5%[46.1 µM] | -9% | 5%[46.1 µM] | . | -3% | . | 0% | -3%
COC(=O)c1cccc(-n2c(=O)n(Cc3ccccc3)c(=O)c3[nH]cnc32)c1C | 20% | 9% | -12% | . | 0% | . | -8% | 1%
CN(C)S(=O)(=O)c1ccc(C(=O)OCC(=O)Nc2ccc(OC(F)F)cc2)cc1 | ? | 0% | -10%[46.1 µM] | . | 0% | . | -16% | 2%
CC1Cc2nc(SCC(=O)Nc3ccc4c(c3)OCO4)n(Cc3ccccc3)c(=O)c2S1 (configuration not stated) | 0%&4% | . | 24% | 32µM* | 14% | -2.1% | -2% | 11µM*
COCC(C)NC(=O)CSc1nnc(-c2cccc(S(=O)(=O)N3CCCCC3)c2)o1 (configuration not stated) | ? | 2% | -6% | . | 0% | . | 3% | .
COc1cccc(-c2nnc(-c3ccc(C)o3)o2)c1 | -19% | -31% | ? | 10% | -5% | -6.4% | -16% | 3%[9.22 µM]
CN1CCN(C(=O)c2ccccc2NC(=O)c2cccc(Cl)c2)CC1 | -4% | 0% | 2% | . | 2% | . | 11% | 14%
COc1ccc(N(C(=O)CNC(=O)c2ccco2)C(C(=O)NC2CCCC2)c2ccncc2)cc1 (configuration not stated) | -6%[46.1 µM] | -13% | ? | . | 0% | . | 1% | 3%
COC(=O)c1cc(-c2ccc(OC)c(OC)c2)on1 | -4% | 12% | 15% | -3% | 2% | 1.0% | -18% | -81%

Source: PubChem BioAssay (National Center for Advancing Translational Sciences (NCATS))
